GIV-Gai inh = blocks GIV peptide binding to rat Galpha-i3; 0.42% of 210,000 active; percent of control (FP), % (concentration not given with the values); AID 1224905; Galpha-i3/FITC-GIV peptide fluorescence polarization, 90 min; hits give low values; scaled: aluminum fluoride 0%, vehicle 100%;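 active means replicate mean at 85% of control or lower, very high polarization wells dropped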;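 further: wells of about 15 µL received 100 nL stock; the first replicate is given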
Target sequence (P08753 whole entry, looked up): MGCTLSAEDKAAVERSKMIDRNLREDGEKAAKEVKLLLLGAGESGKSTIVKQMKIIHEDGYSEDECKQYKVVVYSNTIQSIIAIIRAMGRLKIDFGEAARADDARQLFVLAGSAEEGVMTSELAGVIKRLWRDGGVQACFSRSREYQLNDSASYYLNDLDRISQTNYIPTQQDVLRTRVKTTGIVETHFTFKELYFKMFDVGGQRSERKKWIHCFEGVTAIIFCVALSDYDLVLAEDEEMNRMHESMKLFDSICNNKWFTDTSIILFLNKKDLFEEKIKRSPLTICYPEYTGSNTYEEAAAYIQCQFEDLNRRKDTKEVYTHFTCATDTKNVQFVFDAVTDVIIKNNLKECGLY
* marks the source's active call; other numbers are inactive results. Not all compounds are listed; the hit share may differ from the screen's.

For Cc1cc(NC(=O)CSc2nc(=O)n(Cc3ccncc3)c3c2CCC3)no1 the results were GIV-Gai inh 99.8.
`CCCCOc1ccc(-c2nc(C=Nc3cnc4cc(OC)ccc4c3)c(O)o2)cc1` gave GIV-Gai inh 107.8.
`Cc1cc(C)c(NC(=O)C23CCC(C)(C(=O)O2)C3(C)C)c([N+](=O)[O-])c1` (stereo not given) gave GIV-Gai inh 106.6.
For COCc1cc(C)nc(SCC(=O)Nc2cc(Br)cc3cccnc23)c1C#N the results were GIV-Gai inh 102.2.
CN1CCC(NC(=O)C2CCc3sc(C(=O)N(C)C)cc3C2)CC1 (stereo not given) was read as GIV-Gai inh 106.2.
`COc1ccc(CN2CCCC2c2c(C)noc2C)cc1O` (stereo not given) gave GIV-Gai inh 100.1.
For CC(C)(C)c1ccc(-c2nc(NCCCN3CCOCC3)c3ccccc3n2)cc1 the results were GIV-Gai inh 119.7.
Screening CN(CCc1noc(-c2cc3cc(Cl)ccc3[nH]2)n1)C(=O)c1cccn1C returned GIV-Gai inh 100.5.
For O=C(CSc1nc2[nH]ncc2c(=O)n1-c1ccc(Cl)cc1)Nc1ccc(Oc2ccccc2)cc1 the results were GIV-Gai inh 99.5.
`CCN1C(=O)c2cccc3c(S(=O)(=O)N4CCOCC4)ccc1c23` gave GIV-Gai inh 104.2.
Screening Cc1ccc(C2(c3ccc(C)cc3)SC3(SC(C(=O)c4ccccc4)=NN3c3ccccc3)c3ccccc32)cc1 (stereo not given) returned GIV-Gai inh 102.9.
For CS(=O)(=O)N1CCC(N2CCOCC2)CC1 the results were GIV-Gai inh 104.0.
Screening Cc1ccc(CNC(=O)c2ccc3c(c2)[nH]c(=S)n2c4ccccc4nc32)cc1 returned GIV-Gai inh 108.8.
For CCOc1ccc(-n2c(=S)sc3c2nc(SCC(=O)N2CCCC2)n2c4ccccc4nc32)cc1 the results were GIV-Gai inh 117.0.
`CSCCOC(=O)C1=C(C)NC(=O)NC1c1ccc(OCc2ccccc2)cc1` (stereo not given) gave GIV-Gai inh 97.3.
CCCCN(C)C(=O)c1cc(NC(=O)C(C)C)cnc1N1CCNCC1 was read as GIV-Gai inh 102.2.
For COc1ccc(CCNC(=O)CSc2nc3n[nH]c(C)c3c(=N)n2-c2cccc(Cl)c2)cc1OC the results were GIV-Gai inh 106.9.
Screening Cc1ccc(S(=O)(=O)n2nnc3cc(Cl)ccc32)cc1C returned GIV-Gai inh 106.4.
`COc1cccc(C(=O)Nc2c(-c3ccc(C)cc3)nc3ncccn23)c1OC` gave GIV-Gai inh 106.3.
For CCN1CCN(C(=O)C2(c3ccccc3Cl)CC2)CC1 the results were GIV-Gai inh 103.1.
Screening O=C(Nc1cnc(N2CCN(c3ccccc3F)CC2)c(C(=O)O)c1)c1ccccc1 returned GIV-Gai inh 106.5.
`CC1=C(C(=O)Nc2ccc(C)cc2)C(c2ccccc2Br)NC(=O)N1` (stereo not given) gave GIV-Gai inh 102.6.
CC(c1ccccc1)N1C(=O)/C(=C\c2c(N3CCN(CCO)CC3)nc3ccccn3c2=O)SC1=S (stereo not given) was read as GIV-Gai inh 170.0.
COc1cc(NC(=O)c2c(S(=O)(=O)Nc3ccc(Cl)cc3)n[nH]c2C)cc(OC)c1 was read as GIV-Gai inh 107.7.
Screening COc1cc([N+](=O)[O-])c(Cl)cc1N=Cc1c(C)[nH]n(-c2cccc(Cl)c2)c1=O returned GIV-Gai inh 104.9.
`CC(C)OC(=O)COc1ccc(C2C3=C(CC(C)(C)CC3=O)OC3=C2C(=O)CC(C)(C)C3)cc1` gave GIV-Gai inh 122.2.
Screening CCOc1ccccc1C1C(C#N)=C(SCC(=O)Nc2ccc(Br)cc2)NC(=O)C1C(=O)OC (stereo not given) returned GIV-Gai inh 98.7.
`CC(c1nnc(SCC(=O)N2CCc3ccccc32)n1C)N1C(=O)COc2ccccc21` (stereo not given) gave GIV-Gai inh 99.3.
Screening CCOC(=O)c1sc2nc(Cc3ccccc3)nc(N3CCCC3)c2c1C returned GIV-Gai inh 111.0.
C=Cc1ccc(CSc2nc3c(c(=O)[nH]2)CN(CCC)CC3)cc1 was read as GIV-Gai inh 106.6.

Molecules above containing two or more sulfur atoms (3):
Screening Cc1ccc(C2(c3ccc(C)cc3)SC3(SC(C(=O)c4ccccc4)=NN3c3ccccc3)c3ccccc32)cc1 (stereo not given) returned GIV-Gai inh 102.9.
For CCOc1ccc(-n2c(=S)sc3c2nc(SCC(=O)N2CCCC2)n2c4ccccc4nc32)cc1 the results were GIV-Gai inh 117.0.
CC(c1ccccc1)N1C(=O)/C(=C\c2c(N3CCN(CCO)CC3)nc3ccccn3c2=O)SC1=S (stereo not given) was read as GIV-Gai inh 170.0.

Remaining list, next part
O=C(NCc1noc(-c2ccccc2)n1)c1cccnc1Cl was read as GIV-Gai inh 103.6.
Screening CC1CCCCC1NS(=O)(=O)c1ccc(F)c(C(=O)Nc2ccccc2Cl)c1 (stereo not given) returned GIV-Gai inh 105.0.
Screening CN(CCc1noc(C(=O)NCc2ccc(Cl)cc2)n1)C(=O)NC1CCCC1 returned GIV-Gai inh 102.9.
Cc1cc(C)c(NC(=O)CSc2cc(C)c3cc(S(=O)(=O)N4CCCC4)ccc3n2)c(C)c1 was read as GIV-Gai inh 100.1.
For CCOc1cc(C2N3CCc4ccccc4C3CN2S(=O)(=O)c2ccccc2)ccc1OC (stereo not given) the results were GIV-Gai inh 102.0.
For Cc1ccc(C(=O)NCc2nc(-c3ccc4c(c3)nnn4C3CCCC3)no2)cc1 the results were GIV-Gai inh 100.7.
Screening O=C(CCc1nc(CSc2nnc(-c3cccnc3)o2)no1)Nc1ccc(Br)cc1 returned GIV-Gai inh 103.3.
Cc1ccc(NC(=O)Nc2nccn(-c3ccc(Cl)cc3)c2=O)cc1C was read as GIV-Gai inh 102.1.
`CC1CCCN(c2ccc(-c3noc(CN4CCN(C(C)C)CC4)n3)cn2)C1` (stereo not given) gave GIV-Gai inh 98.6.
O=C(Cn1cccc1-c1nc(-c2ccccc2)cs1)NC1CCCC1 was read as GIV-Gai inh 102.2.
Screening Cc1cc(C)c2c(c1)CC(C)(C)c1nc3cc(Cl)c(C)cc3nc1-2 returned GIV-Gai inh 104.5.
For Cc1cc(C)cc(NC(=O)c2cc(S(=O)(=O)N3CCN(c4ccccc4)CC3)ccc2F)c1 the results were GIV-Gai inh 107.6.
Screening Cc1ccc(NC(=O)/C(=C/c2ccc3c(c2)OCO3)NC(=O)c2ccc(Br)cc2)cc1F returned GIV-Gai inh 112.6.
`CCN(CC)C(=O)CN1C(=O)C2(OCC(CO)([N+](=O)[O-])CO2)c2ccccc21` (stereo not given) gave GIV-Gai inh 103.7.
Screening COc1ccc(-c2nc(Cn3nnc(-c4nc(-c5ccc6c(c5)OCO6)no4)c3C)c(C)o2)cc1 returned GIV-Gai inh 105.4.

Reprinted at random: four entries already listed, in no set order.
O=C(Cn1cccc1-c1nc(-c2ccccc2)cs1)NC1CCCC1 was read as GIV-Gai inh 102.2.
Screening CN(CCc1noc(C(=O)NCc2ccc(Cl)cc2)n1)C(=O)NC1CCCC1 returned GIV-Gai inh 102.9.
Screening Cc1ccc(NC(=O)/C(=C/c2ccc3c(c2)OCO3)NC(=O)c2ccc(Br)cc2)cc1F returned GIV-Gai inh 112.6.
For Cc1cc(C)cc(NC(=O)c2cc(S(=O)(=O)N3CCN(c4ccccc4)CC3)ccc2F)c1 the results were GIV-Gai inh 107.6.

Following part.
Screening N#Cc1c(/N=C/c2ccccc2Cl)oc(-c2ccccc2)c1-c1ccccc1 returned GIV-Gai inh 98.5.
For CCCc1cc(C2CCCN2C(=O)c2cc(C(C)C)no2)no1 (stereo not given) the results were GIV-Gai inh 103.4.
Screening O=C(Sc1sc(=S)sc1SC(=O)c1ccccc1)c1ccccc1 returned GIV-Gai inh 112.9.
O=C1Nc2cc(C(=O)N3CCc4ccccc4C3)ccc2NC1CS(=O)(=O)Cc1cccc(Cl)c1 (stereo not given) was read as GIV-Gai inh 101.0.
`CC(C)(C)Nc1c(-c2cccc(F)c2)nc2sc3ccccc3n12` gave GIV-Gai inh 96.0.
For O=C(NC1CCCCC1)c1cccc(Nc2ncc(-c3cccc(F)c3)cn2)c1 the results were GIV-Gai inh 105.2.
`Cc1ccc(C(=O)[C@H]2[C@H](c3ccccc3)C(C#N)(C#N)[C@@H]3c4ccccc4C=CN32)cc1` gave GIV-Gai inh 111.1.
For NC(=O)C1CCN(c2nc3ccccc3nc2S(=O)(=O)Cc2ccc(Cl)cc2)CC1 the results were GIV-Gai inh 99.3.
For O=c1c2ccccc2nc(SCc2cc(F)cc3c2OCOC3)n1NS(=O)(=O)c1ccc(Cl)cc1 the results were GIV-Gai inh 106.9.
`O=C(CSc1nnc2ccc(-c3ccccn3)nn12)N1CCOCC1` gave GIV-Gai inh 99.8.
Screening CCCNC(=O)c1ccc2c(=O)n(CC3CCCO3)c(SCc3cccc(Cl)c3)nc2c1 (stereo not given) returned GIV-Gai inh 112.8.
For Cc1nc(-c2ccc(S(=O)(=O)Nc3cccnc3)cc2)co1 the results were GIV-Gai inh 100.4.
For O=S(=O)(c1ccc(-c2cnc(C3CCC3)o2)s1)N1CCN(c2ccccn2)CC1 the results were GIV-Gai inh 143.0.
`O=C(C1CCC1)N1CCc2cc(-c3csc(C4CC4)n3)ccc21` gave GIV-Gai inh 109.5.
Screening O=C(Nc1ccccc1[N+](=O)[O-])c1cccc(S(=O)(=O)Nc2ccc(C(=O)N3CCOCC3)cc2)c1 returned GIV-Gai inh 111.9.
For Cn1nccc1-c1cccc(-c2noc(-c3ccoc3)n2)c1 the results were GIV-Gai inh 102.7.
Screening O=C(NC1CC1)C1CCN(c2cncnc2N2CCOCC2)CC1 returned GIV-Gai inh 105.0.
For O=C(CCCn1nc(-c2ccccc2)c2ccccc21)NCc1ccc(F)cc1 the results were GIV-Gai inh 107.8.
O=C(NC1CCN(c2ncnc3c2CCC3)C1)c1ccco1 (stereo not given) was read as GIV-Gai inh 104.1.
`O=C1CSC(c2cc3c(cc2[N+](=O)[O-])OCO3)N1c1cc(Cl)cc(Cl)c1` (stereo not given) gave GIV-Gai inh 111.3.
Screening COc1ccc(/C=C2\C=C(c3ccccc3)N(c3ccccc3Br)C2=O)cc1Br returned GIV-Gai inh 106.3.
CCOc1ccc(C2C(N3C(=O)c4c(Cl)c(Cl)c(Cl)c(Cl)c4C3=O)C(=O)N2c2cccc(Cl)c2C)cc1 (stereo not given) was read as GIV-Gai inh 99.0.
`CCOC(=O)c1c(NC(=O)C(C)Sc2nnc(CNC(=O)Cc3ccc(OC)cc3)n2C)sc2c1CCCCC2` (stereo not given) gave GIV-Gai inh 115.2.
CCn1c(=O)n(CC(=O)N2CCN(c3ccc(C)cc3)C(C)C2)c(=O)c2ccccc21 (stereo not given) was read as GIV-Gai inh 116.0.
For O=c1oc2ccccc2cc1-c1nc(-c2ccc3ccccc3c2)cs1 the results were GIV-Gai inh 110.6.
Cc1cc(C2CCCN2Cc2cc(Br)ccc2O)no1 (stereo not given) was read as GIV-Gai inh 100.3.
`O=C(Nc1ccc(F)cc1)c1ccc(Nc2ncc(-c3cccc(F)c3)cn2)cc1` gave GIV-Gai inh 110.1.
`O=C1C2C(c3ccccc3)OC3(C(=O)c4ccccc4C3=O)C2C(=O)N1c1cccc(C(F)(F)F)c1` (stereo not given) gave GIV-Gai inh 112.5.
For O=C1C2=C(Nc3ccccc3SC2c2ccc3c(c2)OCO3)c2ccccc21 (stereo not given) the results were GIV-Gai inh 113.3.
Cc1nn(-c2ccc3nnc(C)n3n2)c2c1C(c1ccccc1OCCc1ccccc1)CC(=O)N2 (stereo not given) was read as GIV-Gai inh 98.9.

The final two compounds of the part before come first, to join the parts.
For O=C1C2=C(Nc3ccccc3SC2c2ccc3c(c2)OCO3)c2ccccc21 (stereo not given) the results were GIV-Gai inh 113.3.
Cc1nn(-c2ccc3nnc(C)n3n2)c2c1C(c1ccccc1OCCc1ccccc1)CC(=O)N2 (stereo not given) was read as GIV-Gai inh 98.9.
Cc1c(C(=O)N2CCCc3ccccc32)sc2ncn(Cc3ccccc3F)c(=O)c12 was read as GIV-Gai inh 104.2.
Screening Clc1ccc(-c2csc(Cc3nc(-c4ccc5c(c4)OCO5)no3)n2)cc1 returned GIV-Gai inh 105.3.
`CC1(C)CN(C(=O)C2CC2)c2ccc(S(=O)(=O)NCCc3ccc(S(N)(=O)=O)cc3)cc21` gave GIV-Gai inh 100.8.
`Ic1cccc(-c2nnc3ccc4ccccc4n23)c1` gave GIV-Gai inh 109.1.
Screening Cc1ccc(NS(=O)(=O)c2cc(-c3nc(C)c(C)s3)sc2C)cc1Cl returned GIV-Gai inh 108.5.
`COC(=O)c1ccc(NC(=O)CSc2nnc(C(C)N3C(=O)COc4ccccc43)n2C)cc1` (stereo not given) gave GIV-Gai inh 101.3.
Screening Cc1ccc(CCN2CC(C(=O)N3CCC(Cc4ccccc4)CC3)CC2=O)cc1 (stereo not given) returned GIV-Gai inh 105.0.
CC(C)Cc1nc(SCC(=O)Nc2ccc(S(N)(=O)=O)cc2)n[nH]1 was read as GIV-Gai inh 115.0.
For CCc1nc(-c2cc(S(=O)(=O)Nc3cc(F)cc(F)c3)c(C)s2)cs1 the results were GIV-Gai inh 108.3.
`O=C(CCc1ccccc1)NCc1nc2cccnc2n1Cc1ccccc1` gave GIV-Gai inh 104.9.
For CCOc1ccc(N2C(=O)CS(=O)(=O)C2c2ccccc2Br)cc1 (stereo not given) the results were GIV-Gai inh 113.0.
Screening CCSc1sc(CC)cc1C1C(C(=O)Nc2ccccn2)=C(C)NC2=C1C(=O)CC(c1ccccc1)C2 (stereo not given) returned GIV-Gai inh 101.2.
For CCOC(=O)C1CCN(C(=O)c2sc3ncn(CC)c(=O)c3c2C)CC1 the results were GIV-Gai inh 117.7.
For O=C(Nc1nc(-c2ccc(Br)cc2)cs1)c1c(O)c2ccccc2[nH]c1=O the results were GIV-Gai inh 104.9.
Screening Clc1cccc(N2CCN(c3ccc4nnnn4n3)CC2)c1 returned GIV-Gai inh 105.2.
Screening COc1ccccc1-n1c(SCC(=O)Nc2cc(OC)c(OC)c(OC)c2)nc2[nH]ncc2c1=O returned GIV-Gai inh 110.0.

Bioassay records as filed in PubChem.
